CtBP-E1A blk – CtBP/E1A binding inhibition | AlphaScreen GST-E1A/His-CtBP binding, 1536-well; stronger effect = lower value; control for the full effect not named in the record | activity change, % (concentration not given with the values) | 340,000 compounds, 0.49% hits | AID 651724; in the data active means activity change below about -65%; inconclusive means about -30% to -65%; inactive means above about -30%; further: on the % scale 0 is the no-effect control and ±100 the full control effect
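AlphaScreen with 125 nM GST-E1A and 125 nM His-CtBP (5X stocks) in Tris pH 8.0, 300 mM NaCl, BSA, Tween 20, TCEP. Compounds preincubated 2 h at 37 deg C, then glutathione donor/nickel acceptor beads added for 1 h at 37 deg C in dark.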
TRPV1 PAM – potentiators of human vanilloid receptor 1 (TRPV1); Q8NER1; TRPV1-expressing cells, Fluo-8 calcium influx, capsaicin EC20 potentiation; host cell line not named in the record; control for the full effect not named in the record; potentiation, % at 8.33 µM; 320,000 compounds, 0.02% hits; AID 540277; active means potentiation above 80%; inconclusive means 30% to 80%; inactive means below 30%; further: 0% is about no effect
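TRPV1-expressing cells were cultured overnight at 35.5C and loaded with Fluo-8 calcium dye for 40 to 90 min at room temperature. After a 10 s baseline, compound was added and calcium influx was read kinetically for 3 min (ex 480/em 520 nm).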
TRPML1 ag – human mucolipin-1 channel agonism. activation, % (test concentration not listed). Q9GZU1. AID 624414. TRPML1-expressing cells, Ca2+ dye fluorescence, FDSS; host cell line not named in the record; reference of the full effect not given here. 410,000 compounds, 0.12% hits; in the data active = activation above about 50%; inconclusive = about 30% to 50%; inactive = below about 30%; further: 0% is about no effect; the text of the record puts the active cut at 80%
Target sequence (Q9GZU1 whole entry, looked up): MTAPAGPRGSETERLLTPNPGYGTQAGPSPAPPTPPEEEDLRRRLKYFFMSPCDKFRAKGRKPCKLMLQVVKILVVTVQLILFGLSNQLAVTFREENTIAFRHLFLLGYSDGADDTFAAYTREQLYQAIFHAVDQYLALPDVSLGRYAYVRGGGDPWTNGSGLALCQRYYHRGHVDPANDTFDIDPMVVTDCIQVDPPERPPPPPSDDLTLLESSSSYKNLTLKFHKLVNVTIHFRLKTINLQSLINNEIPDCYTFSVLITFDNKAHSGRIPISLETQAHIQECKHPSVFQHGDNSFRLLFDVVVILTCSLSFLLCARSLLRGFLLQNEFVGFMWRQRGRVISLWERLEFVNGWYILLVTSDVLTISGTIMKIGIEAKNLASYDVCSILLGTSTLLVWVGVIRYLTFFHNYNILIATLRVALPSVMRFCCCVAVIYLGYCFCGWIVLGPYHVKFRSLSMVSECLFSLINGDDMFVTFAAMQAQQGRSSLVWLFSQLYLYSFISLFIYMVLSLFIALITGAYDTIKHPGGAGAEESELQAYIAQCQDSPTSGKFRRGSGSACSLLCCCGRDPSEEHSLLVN
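Tetracycline-induced TRPML1-DL cells are seeded and incubated overnight before loading with a no-wash Ca2+ dye and quencher. Agonist activity is taken from the 110 s fluorescence read following compound pin-transfer on an FDSS, before EC80 54-4 challenge.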
D2 potentiator – positive allosteric modulators of human D2 dopamine receptor; P14416; DiscoveRx D2 beta-arrestin cells, luminescence, 90 min; 100% = 57 uM dopamine signal; potentiation, % (test concentration not listed); 360,000 compounds, 0.23% hits; AID 624464; active = potentiation of 50% or more; inconclusive = 30% to 50%; inactive = 30% or less;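 further: compound concentration not given in the record; tested on top of an EC20 dose of dopamine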
Target sequence (P14416 whole entry, looked up): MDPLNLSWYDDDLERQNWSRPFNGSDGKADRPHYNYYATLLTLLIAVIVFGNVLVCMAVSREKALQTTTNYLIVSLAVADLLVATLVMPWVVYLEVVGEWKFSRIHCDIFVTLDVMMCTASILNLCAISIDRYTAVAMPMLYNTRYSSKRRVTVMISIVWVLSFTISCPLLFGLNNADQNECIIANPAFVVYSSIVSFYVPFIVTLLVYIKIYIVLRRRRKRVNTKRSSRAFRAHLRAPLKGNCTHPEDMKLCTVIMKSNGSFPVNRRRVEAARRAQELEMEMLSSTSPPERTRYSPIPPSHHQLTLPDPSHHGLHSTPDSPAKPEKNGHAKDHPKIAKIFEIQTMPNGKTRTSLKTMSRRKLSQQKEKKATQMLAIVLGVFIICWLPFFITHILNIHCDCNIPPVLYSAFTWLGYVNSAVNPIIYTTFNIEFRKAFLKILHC
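PathHunter D2 cells, attached overnight at 37 deg C, received compound in DMSO plus dopamine at EC20 (50 nM final) for 90 min at 37 deg C. Beta-arrestin recruitment was read as luminescence after 1 h with detection reagent at ambient temperature.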
Six1-Eya2 inh – blocks human Six1 binding to Eya2 | Q15475+O00167 | AlphaScreen GST-Six1/His-Eya2 binding, biochemical; stronger effect = lower value; control for the full effect not named in the record | activity change, % (concentration not given with the values) | 360,000 compounds, 0.56% hits; in the data active = activity change below about -65%; inconclusive = about -30% to -65%; inactive = above about -30%; further: on the % scale 0 is the no-effect control and ±100 the full control effect
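Homogeneous AlphaScreen proximity assay pairing GST-Six1 with His-tagged Eya2 (added as 5X mix: 250 nM and 500 nM) in 50 mM Tris pH 8.0, 300 mM NaCl, 1 mM TCEP. Glutathione donor and nickel acceptor beads; 1 h, 37 °C, dark.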
TRPML1 inh – blocks the human TRPML1 channel | activity change, negative = inhibition, % (test concentration not listed) | Q9GZU1 | 390,000 compounds, 0.02% hits | TRPML1-inducible cells, Ca2+ dye fluorescence, FDSS; stronger effect = lower value; inhibition of EC80 agonist-evoked calcium signal; in the data active means activity change below about -50%; inconclusive means about -30% to -50%; inactive means above about -30%;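 further: stimulus is agonist 54-4 at its EC80 concentration; on the % scale 0 is the no-effect control and ±100 the full control effect; compound concentration not given in the record; the text of the record puts the active cut at -80%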
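Calcium fluorescence in TRPML1-DL cells induced overnight with Tet: a 110 s read after compound pin addition, then a 110 s antagonist read after challenge with 54-4 at 4 uM final (EC80).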
The depositor's hits bear a star; u = inconclusive; x = not tested or not shown; & = joins results of further samples. Not a hit list; any-hit rate near 0.95%.

#	SMILES	CtBP-E1A blk	TRPV1 PAM	TRPML1 ag	D2 potentiator	Six1-Eya2 inh	TRPML1 inh
1	COc1ccc(/C=C(\C#N)c2nc(-c3cc4c(ccc5ccccc54)oc3=O)cs2)cc1O	x	11	1.3	x	x	5
2	CCCCC[C@@H](O)c1cc2ccccc2c(=O)o1	9	x	-0.6	-6	-1	0
3	CCCc1[nH]n(-c2ccc([N+](=O)[O-])cc2)c(=O)c1C=NCCc1ccc(OC)c(OC)c1	x	11	1.1	-1	-7	6
4	O=C(Cc1ccc(NC(=O)C2CCCN(C(=O)C3CCCCC3)C2)cc1)Nc1ccc(C(=O)N2CCOCC2)cc1 (centres undefined)	4	x	3.6	-1	9	24
5	C[C@H](CO)N1C[C@H](C)[C@@H](CN(C)S(C)(=O)=O)Oc2c(NC(=O)Cc3ccccc3)cccc2C1=O	2	x	-0.8	9	20	-10
6	COC(=O)c1cccc(NC(=O)/C=C/c2cccc([N+](=O)[O-])c2)c1	-7	-9	1.3	5	0	-15
7	COc1cccc(CC2(CO)CCN(S(=O)(=O)N(C)C)CC2)c1	4	-3	-0.7	-2	4	-12
8	CCCc1ccc(-c2c(C)sc(N)c2C#N)cc1	-8	8	-0.8	-30	-13	7
9	CC(C)(CO)CNC(=O)CCc1nnc(Cc2ccc(-c3ccccc3)cc2)o1	0	6	-0.2	-5	-11	5
10	O=C(NN(C(=O)c1ccccc1)c1ccccc1)c1ccccc1	8	-2	0.8	0	u	-14
11	N#CC1=C2SCN(Cc3ccco3)CN2C(=O)CC1c1ccc(Cl)cc1 (centres undefined)	1	-1	0.2	-10	-1	-3
12	O=c1[nH]c2cc(S(=O)(=O)CCO)ccc2o1	3	x	x	1	-3	x

Next section.
#	SMILES	CtBP-E1A blk	TRPV1 PAM	TRPML1 ag	D2 potentiator	Six1-Eya2 inh	TRPML1 inh
13	O=c1cc(-c2cccnc2)oc2c1ccc1ccccc12	-15	-15	-0.2	-8	-9	-15
14	CN(Cc1ccccc1C#N)S(=O)(=O)c1cccs1	7	25	0.6	-5	-5	-9
15	Cc1c(N(C(=O)Nc2ccccc2)C2=NCC(C)S2)c(=O)n(-c2ccccc2)n1C (centres undefined)	1	-3	-0.6	-15	4	-2
16	Cc1cccc(NC(=O)c2ccccc2OCC(=O)N2CCOCC2)c1C	0	8	0.4	-5	3	-3
17	Cc1ccc(S(=O)(=O)N2CCC(=O)N(C(COCc3cccc(Cl)c3)C(C)C)CC2)cc1 (centres undefined)	-1	-7	7.2	-9	-5	30
18	CCn1cc(S(=O)(=O)Nc2ccc(C)c(Cl)c2)cn1	7	-2	1.1	-1	5	7
19	Cc1cc(-c2nc3ccccc3o2)c2ccccc2n1	-6	-3	1.0	-9	6	15
20	CCN(CCCNC(=O)CNC(=O)Cn1cnc2ccccc2c1=O)c1ccccc1	-11	13	1.4	-22	-7	7
21	O=C(CC12CC3CC(CC(C3)C1)C2)N1CCOCC1	5	x	-0.7	9	2	1
22	CCCC1=C(C(=O)OCC)C(c2cccs2)C(C#N)=C(N)O1 (centres undefined)	2	-22	2.1	-24	-3	8
23	CC(C)=NOc1nc(N2CCOCC2)nc(N2CCOCC2)n1	15	11	0.1	2	9	10
24	Cc1cc(NC(=O)C(C)SCC(=O)OCc2c(Cl)cccc2Cl)no1 (centres undefined)	7	-5	1.7	-6	-1	-2

Going on with the list:
#	SMILES	CtBP-E1A blk	TRPV1 PAM	TRPML1 ag	D2 potentiator	Six1-Eya2 inh	TRPML1 inh
25	COc1cccc(C(=O)Nc2cccc(OCC(=O)O)c2)c1	4	7	2.5	0	2	63
26	O=C(CCN1CCN(C(c2ccccc2)c2ccccc2)CC1)N/N=C/c1ccc(O)cc1O	-73*	-8	1.4	-40	-11	20
27	CSCCC(NC(=O)c1ccco1)C(=O)N1CCN(Cc2ccccc2)CC1 (centres undefined)	-16	10	-0.5	-14	-9	-10
28	O=C(Nc1cccnc1)c1ccc(Oc2ccccc2)cc1	-10	0	3.7	-25	-1	-10
29	COc1ccccc1NC(=O)Cn1cnc2sc(C(=O)NCc3ccco3)c(C)c2c1=O	-9	4	0.2	-2	-17	1
30	CCOC(=O)Cc1csc(NS(=O)(=O)c2ccc3c4c(cccc24)C(=O)N3CC)n1	-6	21	0.6	-15	u	4
31	COc1cc(C#N)c(N=C(SCC#N)N2CCOCC2)cc1OC	4	3	1.1	-1	-5	6
32	C/C(=N\NC(=O)C(c1ccccc1)c1ccccc1)c1ccc(O)cc1	x	-1	x	-10	9	x
33	O=C(NC1CCCc2ccccc21)c1ccc([N+](=O)[O-])cc1 (centres undefined)	0	-7	3.2	9	8	-3
34	C=CCS(=O)(=O)c1cccc2cccnc12	u	-12	0.0	-8	-14	-22
35	Cc1ccccc1C(=O)NCC(=O)OCCOc1ccc(C(C)C)c(C)c1	0	-22	2.6	-8	4	-7
36	CCCc1ccc(C(=O)NNC(=O)c2ccc(Br)cc2)cc1	-15	-17	-0.7	-18	-1	7

Later entries.
#	SMILES	CtBP-E1A blk	TRPV1 PAM	TRPML1 ag	D2 potentiator	Six1-Eya2 inh	TRPML1 inh
37	CCOC(=O)c1ccc[n+](C(C)C(=O)c2ccc(-c3ccccc3)cc2)c1 (centres undefined)	5	4	5.5	-35	9	7
38	CN(C)C(=O)N1CCNCC1	x	-4	0.5	-1	-1	88
39	CN(C)c1ccc(C(=O)OCC(=O)NCCNC(=O)COC(=O)c2ccc(N(C)C)cc2)cc1	-4	-22	0.9	-9	-3	22
40	CC1CCCC(NC(=O)C2COc3ccccc3O2)C1C (centres undefined)	-9	-16	0.4	-19	8	-9
41	O=C(NCc1ccccc1)C(c1ccc(O)cc1)N(C(=O)Cn1nnc(-c2cccs2)n1)c1ccc2c(c1)OCCO2 (centres undefined)	-1	-4	0.8	-8	-8	9
42	CCOC(=O)CNC(=O)CSc1ccc(-c2nc3ccccc3[nH]2)cn1	-3	4	-0.5	-1	-7	0
43	CCOC(=O)C1(CCc2ccccc2)CCN(C(=O)C2CCCO2)CC1 (centres undefined)	1	-17	0.8	-3	0	-15
44	CC1CN(C(=O)COC(=O)Cc2c(F)cccc2Cl)CC(C)O1 (centres undefined)	-3	4	0.1	-2	0	3
45	COc1ccc(NS(=O)(=O)Cc2ccccc2Cl)cn1	9	28	-0.7	-12	0	-15
46	CCOc1ccccc1NC(=O)CSc1nnc(-c2ccncc2)o1	4	11	-0.4	0	9	4
47	C/C(=N\NC(=O)c1ccccc1-n1cccc1)C1CC1	0	0	0.1	-3	1	-27
48	O=C(NCC(c1ccco1)N1CCc2ccccc21)c1ccccc1Cl (centres undefined)	-4	3	-0.2	-11	-17	-17

Given with values under each structure: entries from further up
Screens in order: CtBP-E1A blk	TRPV1 PAM	TRPML1 ag	D2 potentiator	Six1-Eya2 inh	TRPML1 inh
34	C=CCS(=O)(=O)c1cccc2cccnc12
→ u	-12	0.0	-8	-14	-22
35	Cc1ccccc1C(=O)NCC(=O)OCCOc1ccc(C(C)C)c(C)c1
→ 0	-22	2.6	-8	4	-7
36	CCCc1ccc(C(=O)NNC(=O)c2ccc(Br)cc2)cc1
→ -15	-17	-0.7	-18	-1	7
37	CCOC(=O)c1ccc[n+](C(C)C(=O)c2ccc(-c3ccccc3)cc2)c1 (centres undefined)
→ 5	4	5.5	-35	9	7
38	CN(C)C(=O)N1CCNCC1
→ x	-4	0.5	-1	-1	88
39	CN(C)c1ccc(C(=O)OCC(=O)NCCNC(=O)COC(=O)c2ccc(N(C)C)cc2)cc1
→ -4	-22	0.9	-9	-3	22
40	CC1CCCC(NC(=O)C2COc3ccccc3O2)C1C (centres undefined)
→ -9	-16	0.4	-19	8	-9
41	O=C(NCc1ccccc1)C(c1ccc(O)cc1)N(C(=O)Cn1nnc(-c2cccs2)n1)c1ccc2c(c1)OCCO2 (centres undefined)
→ -1	-4	0.8	-8	-8	9
42	CCOC(=O)CNC(=O)CSc1ccc(-c2nc3ccccc3[nH]2)cn1
→ -3	4	-0.5	-1	-7	0
43	CCOC(=O)C1(CCc2ccccc2)CCN(C(=O)C2CCCO2)CC1 (centres undefined)
→ 1	-17	0.8	-3	0	-15
44	CC1CN(C(=O)COC(=O)Cc2c(F)cccc2Cl)CC(C)O1 (centres undefined)
→ -3	4	0.1	-2	0	3
45	COc1ccc(NS(=O)(=O)Cc2ccccc2Cl)cn1
→ 9	28	-0.7	-12	0	-15

Remaining list, next part.
#	SMILES	CtBP-E1A blk	TRPV1 PAM	TRPML1 ag	D2 potentiator	Six1-Eya2 inh	TRPML1 inh
49	Cc1ccc(CNC(=O)C2CCN(C(=O)c3cccc(Cl)c3)CC2)cc1	-2	-18	0.2	1	0	-7
50	CCC(C)/C(C)=N/NC(=O)C1COc2ccccc2O1 (centres undefined)	6	-2	0.0	-2	9	1
51	COc1cccc(CNC(=O)Cn2ncc3c(=O)oc4ccccc4c32)c1	3	2	-0.3&0.7	1	4	-6&3
52	O=C(Nc1ccncc1)C1CCN(S(=O)(=O)c2cccs2)CC1	6	-7	-0.3	-8	0	-8
53	CCOP(=O)(OCC)c1nc(-c2ccc(F)cc2)oc1NCc1ccccc1	u	-25	-0.5	0	-23	-13
54	Cc1c(C#N)c(O)[nH]c(=O)c1N=Nc1ccc(Cl)c(C(=O)O)c1	-1	3	0.6	-1	1	-7
55	COc1ccc(N2CCN(S(=O)(=O)c3ccc(-n4cnnn4)c(C)c3)CC2)cc1	4	-27	-0.7	-16	-2	-8
56	CC(=O)Nc1cc2c3c(c1)CC(=O)N3CCC2	x	14	4.3	-4	2	42
57	COc1cccc(NC(=O)C2CCCN(S(=O)(=O)c3cccc4nsnc34)C2)c1 (centres undefined)	-2	-8	1.7	-13	-2	-7
58	COc1ccc(C(=O)C[n+]2cccc(C)c2C)cc1[N+](=O)[O-]	-1	0	-0.7	-4	4	-9
59	CCOC(=O)N1CCN(C(=O)CSc2nc(=O)n3ccccc3n2)CC1	10	12	-0.6	-11	-2	4
60	COc1ccc2nc(NCc3ccc(OC)c(OC)c3OC)sc2c1	-17	x	0.0	-4	-17	-5

Later entries:
#	SMILES	CtBP-E1A blk	TRPV1 PAM	TRPML1 ag	D2 potentiator	Six1-Eya2 inh	TRPML1 inh
61	Cc1ccccc1S(=O)(=O)N1C[C@H]2CON(C)[C@H]2C[C@H]1c1cccc(-c2ccc(C#N)cc2)c1	-4	x	2.9	0	-10	17
62	N#CC1(NC(=O)COC(=O)c2nc(Cl)c(Cl)c(N)c2Cl)CCCCC1	7	6	0.8	-8	-6	-2
63	O=C(CSc1ccc2c(c1)OCCO2)Nc1ccc2c(c1)OCO2	2	21	0.1	-8	u	-10
64	CCC(=O)Nc1ccc(S(=O)(=O)Nc2ccccn2)cc1	-6	3	0.1	-8	-1	12
65	CN(C)S(=O)(=O)c1cccc(-c2cn3ccccc3n2)c1	-8	-1	-0.6	7	6	31
66	COc1cccc(C(=O)NNC(=O)C(=O)Nc2ccc(C)c(Cl)c2)c1	-1	15	1.7	-2	0	15
67	COc1ccc(-c2nc3ccccc3s2)cc1NC(C)=O	-16	4	0.1&-0.7	1	0	-16&-6
68	Cc1onc(-c2ccccc2)c1C(=O)Nc1ccc(-c2nnc3n2CCCCC3)cc1	2	0	-0.1	8	1	17
69	COC(=O)c1sccc1NC(=O)CSc1ccccc1NS(=O)(=O)c1cc(Cl)ccc1Cl	-5	24	2.3	13	-5	30

Screening data: PubChem, National Center for Advancing Translational Sciences (NCATS)
